Source: PubChem BioAssay (several laboratories)
UCH37 DUB inh: blocks the human deubiquitinase UCH37; Q9Y5K5; purified proteasome/UCH37, Ub-AMC cleavage fluorescence; inhibition, % (no concentration beside the values); 330,000 tested, 0.33% active; AID 588478;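 active = mean of two replicates above 20%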;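 note: 0% = compound-free wells with enzyme and 100% = wells lacking proteasome; stock transfer was 100 nL into about 20 µL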
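Reagent: Ub-AMC substrate; assay system: Proteasome-associated human UCH37 deubiquitinase; controls: no-proteasome and no-compound wells; read-out: % inhibition of Ub-AMC cleavage fluorescence; timing: 30 min preincubation with enzyme, 25 min cleavage at room temperature; signal: AMC fluorescence from Ub-AMC cleavage, excitation 355 nm, emission 460 nm; buffer or medium: Tris-HCl pH 7.4 plus ovalbumin, ATP-MgCl2, DTT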
HNF4A DNA FP: change in binding of human HNF4 alpha to DNA; P41235; HNF4a-FITC DNA binding, fluorescence polarization, 1 h; activity change, % at 10 µM; 360,000 tested, 0.3% active; in the data active = activity change above about 30%, passing the limit was not always enough;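 note: controls were the assay level and a saturating level of protein; the project sought stronger binding though the title names inhibitors; some compounds called inactive have numbers as strong as hits; positive values seem to mean higher polarization but the record does not say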
Target sequence (P41235 whole entry, looked up): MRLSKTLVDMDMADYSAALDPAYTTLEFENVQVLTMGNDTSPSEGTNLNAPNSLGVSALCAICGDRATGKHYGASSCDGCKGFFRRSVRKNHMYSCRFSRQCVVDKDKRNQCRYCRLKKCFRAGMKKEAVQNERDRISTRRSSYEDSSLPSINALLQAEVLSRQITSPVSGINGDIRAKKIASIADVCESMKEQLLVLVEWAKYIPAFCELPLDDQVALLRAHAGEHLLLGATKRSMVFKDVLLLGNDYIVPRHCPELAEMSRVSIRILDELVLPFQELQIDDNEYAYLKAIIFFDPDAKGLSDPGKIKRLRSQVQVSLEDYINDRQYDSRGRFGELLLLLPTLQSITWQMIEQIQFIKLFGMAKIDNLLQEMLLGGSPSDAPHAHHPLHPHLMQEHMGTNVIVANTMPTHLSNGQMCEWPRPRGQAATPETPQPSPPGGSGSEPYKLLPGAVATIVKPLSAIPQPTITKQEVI
B2AR ag: human beta-2 adrenergic receptor agonism by FAP; P07550; Am2.2-beta2AR cells, FAP receptor internalization, flow cytometry; reference of the scale not given here; response, % (concentration not given with the values); 340,000 tested, 0.43% active; AID 504454;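 active = response above a set limit, near 3 SD of response in nonfluorescent compounds, cut at about 42% in these data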;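 note: stock transfer was 100 nL into about 11 µL; a reference agonist was the positive control; negative values mostly stem from fluorescent compounds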
Target sequence (P07550 whole entry, looked up): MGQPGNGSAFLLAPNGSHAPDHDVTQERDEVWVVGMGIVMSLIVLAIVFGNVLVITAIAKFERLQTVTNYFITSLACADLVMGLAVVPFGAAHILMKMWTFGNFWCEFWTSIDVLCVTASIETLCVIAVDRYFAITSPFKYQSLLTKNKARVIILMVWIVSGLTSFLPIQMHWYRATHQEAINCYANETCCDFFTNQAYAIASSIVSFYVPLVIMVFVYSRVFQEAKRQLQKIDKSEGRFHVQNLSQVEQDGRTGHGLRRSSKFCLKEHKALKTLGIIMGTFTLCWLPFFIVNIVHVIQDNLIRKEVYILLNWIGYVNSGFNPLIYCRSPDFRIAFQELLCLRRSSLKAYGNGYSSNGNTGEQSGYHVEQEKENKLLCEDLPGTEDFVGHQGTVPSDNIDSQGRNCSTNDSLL
FGF22 binding: binders of recombinant human FGF22 by thermal shift; SYPRO orange fluorescence; percent of sucrose octasulfate shift, DMSO zero; calls only at 9.99 µM; 340,000 tested, 1.5% active; AID 651658;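 active = melting point raised past a set limit in the mean and every replicate; three in four hits are not shown here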
Target sequence (Q9HCT0 whole entry, looked up): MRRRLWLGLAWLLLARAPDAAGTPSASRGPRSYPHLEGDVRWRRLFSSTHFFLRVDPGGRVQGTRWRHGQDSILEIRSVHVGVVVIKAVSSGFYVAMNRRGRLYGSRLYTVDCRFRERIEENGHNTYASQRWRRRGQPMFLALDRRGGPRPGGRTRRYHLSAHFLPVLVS
Ecoli growth: inhibitors of Escherichia coli growth; OD600, 23 h; hits give low values; OD600 absorbance (test concentration not listed); 330,000 tested, 0.21% active; AID 1053175;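 active = OD600 absorbance below the run mean of sample wells minus 3.6 SD, in any replicate, cut at about 0.56 in these data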;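 note: stock transfer was 300 nL into about 60 µL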
ALR H2O2 inh: inhibitors of human sulfhydryl oxidase ALR | inhibition, % (concentration not given with the values) | purified ALR, DTT oxidation, H2O2 HRP-luminol luminescence | 290,000 tested, 3.8% active | AID 485317;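 active = mean and each replicate at 75% or more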;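 note: stock transfer was 7.5 nL into about 7.5 µL; 0% = neutral wells and 100% = wells with inactivated enzyme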
Ecoli rRNA inh: selective bacterial rRNA inhibition in E. coli. E. coli WT GFP vs humanized-ribosome RFP mutants, fluorescence, 24 h; hits give low values; DMSO median 0, no signal -100. GFP signal change (wild-type ribosome), % (concentration not given with the values). 350,000 tested, 1.6% active. AID 720706;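 active = significant combined selectivity score with lowered wild-type GFP, culture density cut under 30%, mutant RFP and density less affected; inactive = any of these conditions unmet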; note: one replicate is shown; some compounds called inactive have numbers as strong as hits
Ecoli rRNA inh OD600: recorded beside Ecoli rRNA inh, whose call it bears; OD600 change, %; measured here: OD600 growth;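 optical density of the mix in the first replicate; 0 = DMSO median and -100 = no signal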
Ecoli rRNA inh RFP: further read-out of Ecoli rRNA inh, marked with its call; RFP signal change, %; measured here: RFP humanized mutant strains;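 first replicate; 0 = DMSO median and -100 = no signal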
* = called active by the depositor; i = inactive; nt = no result given; + = active, no number.

No. | structure | UCH37 DUB inh | HNF4A DNA FP | B2AR ag | FGF22 binding | Ecoli growth | ALR H2O2 inh | Ecoli rRNA inh | Ecoli rRNA inh OD600 | Ecoli rRNA inh RFP
1 | Oc1c(CN2CCOCC2)ccc(CN2CCOCC2)c1O | 3.3 | -1.4 | -4 | i | 0.66 | nt | -5 | 5 | -0.1
2 | Cc1ccc(S(=O)(=O)NC(=O)c2cc(C)n(-c3cc(S(=O)(=O)N4CCOCC4)ccc3N3CCCC3)c2C)cc1 | 1.2 | -4.8 | -6 | i | 0.64 | 0 | 9 | 12 | 0.8
3 | CCOc1ccc(CCNC(=O)CN2C(=O)c3cccnc3Oc3ccc(C)cc32)cc1OCC | 1.7 | 2.4 | 0 | i | 0.75 | -9 | -9 | -16 | 0.7
4 | O=c1c2ccccc2ncn1-c1ccc(Br)cc1[N+](=O)[O-] | 0.8 | -0.9 | -6 | i | 0.69 | -4 | 2 | 7 | -0.5
5 | CCOC(=O)c1[nH]c(C)c(C(=O)OCC(=O)NC(C)c2ccc(F)cc2)c1C (stereo not drawn) | 0.9 | -2.8 | 0 | i | 0.72 | -8 | 9 | 13 | 1.4
6 | Nc1nc(SCC(=O)N2N=C3/C(=C/c4ccco4)CCCC3C2c2ccco2)n[nH]1 (stereo not drawn) | -1.0 | -2.9 | -4 | nt | 0.79 | 5 | nt | nt | nt
7 | COc1cc(OC)c2c(-c3cccc(-c4ccc(CO)cc4)c3)cc(=O)oc2c1 | -3.2 | -0.7 | 38 | nt | 0.72 | nt | nt | nt | nt
8 | CCN(CC(=O)NCc1cccs1)C(=O)c1cc(=O)[nH]c2ccccc12 | -6.6 | -1.0 | 2 | i | 0.73 | 2 | 5 | 11 | 0.7
9 | CCOC(=O)/C(C#N)=C/c1c(N2CCN(C)CC2)nc2ccccn2c1=O | 1.5 | 0.3 | -2 | i | 0.69 | 1 | 10 | 16 | -0.1
10 | Cc1ccc(NC(=O)Cn2ncc(Cl)c(Cl)c2=O)cc1S(=O)(=O)N1CCCCC1 | 3.6 | -4.4 | 26 | i | 0.68 | 1 | -40 | -43 | -0.5
11 | CCn1c(COc2ccccc2C)nnc1SCC(=O)N1CCN(c2ccccc2)CC1 | 6.4 | -1.0 | 0 | nt | 0.72 | 25 | -19 | -28 | -1.4
12 | O=C(c1ccc(-c2ccc([N+](=O)[O-])cc2)o1)N1CCCC(C(F)(F)F)C1 (stereo not drawn) | -4.3 | 5.9 | -7 | i | 0.69 | 15 | -22 | -19 | -2.7
13 | NC(=O)c1ccc(NC(=O)COC(=O)CC2CC3CCC2C3)cc1 (stereo not drawn) | 1.9 | 0.8 | -2 | i | 0.72 | 10 | -8 | -19 | -2.9
14 | CCN(CC)C(=O)c1[nH]cnc1C(=O)NCC(=O)OC(C)(C)C | 1.5 | -1.7 | 4 | i | 0.68 | -4 | 4 | 10 | 4.3
15 | COc1ccc(S(=O)(=O)N2CCN(CC3CC=CCC3)CC2)cc1 (stereo not drawn) | 1.2 | 2.4 | 0 | i | 0.62 | 4 | 1 | -9 | 0.7
16 | COc1ccc(S(=O)(=O)NCc2ccc3c(c2)cc(C)n3C)cc1 | 1.8 | -9.7 | 0 | i | 0.78 | nt | 1 | -1 | 0.7
17 | O=C(N1CCOCC1)C12CC3CC(C1)CC(n1cnc(Cl)n1)(C3)C2 | 1.6 | 2.3 | -4 | nt | 0.67 | -4 | nt | nt | nt
18 | CCCC(=O)c1c[nH]c(C(=O)NCCc2ccccn2)c1 | 2.0 | -1.6 | -1 | nt | 0.76 | nt | nt | nt | nt
19 | COc1ccc(S(=O)(=O)n2ccnc2C)c(C)c1C | 4.0 | -0.1 | 4 | i | 0.71 | -2 | 4 | 12 | -0.9
20 | COc1ccc(CCNC(=O)C(C)OC(=O)c2nsc(Cl)c2Cl)cc1OC (stereo not drawn) | 3.1 | 0.4 | 0 | i | 0.68 | -9 | 4 | 1 | 0.7
21 | COc1ccc(N=NC2C(=O)N(c3ccccc3)N=C2C)cc1 (stereo not drawn) | 3.4 | -3.1 | -6 | + | 0.67 | -4 | 14 | 13 | 0.5
22 | CCOc1ccc(CNC(=O)CCS(=O)(=O)Cc2ccc(C)cc2)cc1OC | -0.1 | 0.8 | 0 | i | 0.72 | -24 | 16 | 20 | 0.5
23 | C/C(=N\NC(=O)c1nnn(-c2nonc2N)c1CN(C)c1ccccc1)c1ccc(O)cc1 | nt | -0.4 | -3 | i | nt | 60 | -6 | -7 | 0.7
24 | O=C(COc1ccc(S(=O)(=O)Nc2cccc(C(F)(F)F)c2)cc1)N1CCOCC1 | 0.9 | 3.1 | 1 | i | 0.69 | -2 | -11 | -15 | -0.7

Entries of single compounds as entered above. Order of screens: UCH37 DUB inh, HNF4A DNA FP, B2AR ag, FGF22 binding, Ecoli growth, ALR H2O2 inh, Ecoli rRNA inh, Ecoli rRNA inh OD600, Ecoli rRNA inh RFP
COc1ccc(S(=O)(=O)n2ccnc2C)c(C)c1C in the list: 4.0, -0.1, 4, i, 0.71, -2, 4, 12, -0.9
CCCC(=O)c1c[nH]c(C(=O)NCCc2ccccn2)c1 in the list: 2.0, -1.6, -1, nt, 0.76, nt, nt, nt, nt

New compounds follow
No. | structure | UCH37 DUB inh | HNF4A DNA FP | B2AR ag | FGF22 binding | Ecoli growth | ALR H2O2 inh | Ecoli rRNA inh | Ecoli rRNA inh OD600 | Ecoli rRNA inh RFP
25 | COc1ccc(/C=N/NC(=O)c2cc(-c3cccnc3)nc3ccccc23)c(OC)c1 | nt | 1.4 | 9 | i | nt | -5 | -2 | -4 | -0.7
26 | Cc1nc2ccccc2n1-c1ccccc1 | 3.9 | 0.0 | 2 | nt | 0.67 | -5 | nt | nt | nt
27 | CC(NC(=O)COC(=O)c1ccc2c(=O)n3c(nc2c1)CCCCC3)c1ccc(F)cc1 (stereo not drawn) | nt | 1.8 | nt | i | nt | nt | -6 | -7 | 0.7
28 | Cc1ccc(Cl)cc1NC(=S)N(CCCN1CCOCC1)Cc1ccccn1 | 2.0 | -2.2 | -3 | nt | 0.63 | 2 | nt | nt | nt
29 | CCc1cccc(C)c1NS(=O)(=O)Cc1ccccc1 | 3.5 | 0.6 | 1 | i | 0.64 | nt | -1 | 1 | 0.5
30 | Cc1ccc(S(=O)(=O)NCC(=O)N(CC(=O)NCC2CCCO2)c2ccc(Cl)cc2)cc1 (stereo not drawn) | -0.1 | -2.8 | -1 | i | 0.69 | nt | 4 | 1 | -2.3
31 | COc1ccc(S(=O)(=O)NC(C(=O)OCC(=O)Nc2ccc(N3CCOCC3)cc2)C(C)C)cc1 (stereo not drawn) | 5.3 | 8.1 | 5 | i | 0.73 | nt | 2 | 11 | -3.2
32 | Cc1ccc(-c2nnc(CN3CCN(C)CC3)o2)cc1 | 1.7 | -4.5 | -4 | i | 0.68 | nt | 11 | 22 | 1.1
33 | O=C(CSc1ncccn1)NC1CCCc2ccccc21 (stereo not drawn) | 3.4 | -1.1 | -1 | i | 0.67 | -1 | 4 | 1 | -4.7
34 | Cc1cccc(N2CCN(CC(=O)NCC3CCCCC3)CC2)c1C | 1.0 | 0.9 | 5 | nt | 0.68 | -4 | nt | nt | nt
35 | N=C1/C(=C/c2cccn2Cc2ccc(Cl)cc2)C(=O)N=C2SC=CN12 | -5.0 | 3.5 | -5 | nt | 0.72 | -1 | nt | nt | nt
36 | COc1cccc(NC(=O)c2ccc(CN3CCOCC3)cc2)c1 | 4.6 | 6.2 | 3 | nt | 0.71 | -5 | nt | nt | nt
37 | O=C1c2ccccc2C(=O)C1c1ccnc2ccccc12 | 4.5 | 8.7 | 6 | nt | 0.73 | nt | nt | nt | nt
38 | CCN(c1ccccc1)S(=O)(=O)c1ccc(OC)c(NC(=O)CCc2nc3ccccc3c(=O)[nH]2)c1 | 3.8 | -0.6 | 12 | i | 0.7 | -3 | -27 | -27 | 4.4
39 | COCCn1c(=O)[nH]c2cc(C(=O)NCCN3CCN(c4ccccc4F)CC3)ccc2c1=O | -7.2 | 0.2 | 0 | nt | 0.73 | -12 | nt | nt | nt
40 | Cc1cc(C)cc(OCC(O)Cn2nc(C)cc2C)c1 (stereo not drawn) | 0.3 | -2.0 | 5 | i | 0.68 | -3 | 6 | -5 | -0.3
41 | CCOC(=O)c1sc(NCCNc2nc(C)c(C(=O)OCC)s2)nc1C | 3.2 | nt | nt | nt | 0.71 | -10 | nt | nt | nt
42 | Cc1nc(C(F)(F)F)c(C(=O)N/N=C(\N)c2ccccn2)s1 | nt | 0.0 | -2 | i | nt | -35 | 10 | 7 | -5.6
43 | O=C(CSc1nn(-c2ccc(Cl)cc2)c(=S)s1)NCC1CCCO1 (stereo not drawn) | 3.2 | 1.2 | 0 | nt | 0.71 | -7 | -1 | -6 | 5.1
44 | COc1ccccc1N1CCN(c2cnccn2)CC1 | 1.6 | 2.3 | -6 | i | 0.68 | 66 | 2 | -2 | 1.3
45 | O=C(Cn1c(CC(=O)N2CCCC2)nc2ccccc21)NCc1ccccc1 | 4.4 | 1.6 | -2 | nt | 0.7 | nt | nt | nt | nt
46 | CC(C)Sc1nc(N)nc2c1ncn2C1OC(CO)C(O)C1O (stereo not drawn) | 0.2 | 2.8 | -5 | i | 0.64 | nt | 3 | 8 | -5.2
47 | CCN1C(=O)C(CC(=O)Nc2ccccc2Cl)N(NC(=O)c2cccc(F)c2)C1=S (stereo not drawn) | 2.5 | -3.0 | 35 | i | 0.72 | 6 | -7 | -6 | 0.1
48 | CC(C)n1cc(-c2ccc(Cl)cc2)cc(C#N)c1=O | -4.7 | 2.3 | 5 | nt | 0.69 | -17 | nt | nt | nt
49 | CCCN(Cc1ccccc1)C(=S)Nc1ccc(OC(F)F)cc1 | -1.6 | 2.8 | 8 | nt | 0.71 | 3 | nt | nt | nt
50 | CCOc1ccc(C(c2c(O)nc(SC)[nH]c2=O)c2c(O)nc(SC)[nH]c2=O)cc1 | 7.1 | -2.7 | 2 | i | 0.64 | 57 | 25 | 20 | 3.1
51 | CC1(C)C(C=C(Cl)Cl)C1C(=O)Nc1ccc([N+](=O)[O-])cc1 (stereo not drawn) | 9.6 | nt | nt | i | 0.64 | nt | -54 | -74 | -28
52 | O=C(Nc1cccc(Cl)c1)Nc1cnccn1 | 6.4 | 0.4 | -4 | i | 0.67 | 1 | 5 | 14 | 3.2
53 | Nc1nonc1-n1nnc(C(=O)N/N=C/c2ccc(O)cc2)c1COc1ccc(F)cc1 | nt | 4.6 | 6 | i | nt | -5 | -24* | -9.8* | 4.8*
54 | CC(C)CNC(=O)c1cc(=O)[nH]c2ccc(S(=O)(=O)Nc3ccc(F)cc3)cc12 | 1.6 | 0.2 | -5 | i | 0.69 | -5 | 9 | 19 | 0.7
55 | CC1=NN(Cc2ccccc2)C(=O)C1C(c1ccc(Cl)cc1)C(C#N)C#N (stereo not drawn) | 4.0 | 0.0 | 1 | i | 0.7 | 25 | -18 | 2 | -12
56 | COc1cc(OC)cc(C(=O)NCc2ccc3c(c2)OCO3)c1 | 0.1 | 0.7 | 1 | i | 0.68 | -5 | 6 | 3 | 1.3
57 | CN1C(=O)c2ccc(C(=O)NCc3ccco3)cc2C1=O | -0.3 | 1.9 | -8 | i | 0.7 | 2 | 4 | 8 | -6.9
58 | CC1=C(C(=O)OC(C)C)C(c2cccs2)N2C(=O)CCSC2=N1 (stereo not drawn) | 8.1 | -2.5 | 8 | nt | 0.7 | 5 | nt | nt | nt
59 | Cc1[nH]nc2c1C(c1ccc(Cl)cc1)C(C#N)=C(N)O2 (stereo not drawn) | 6.5 | 3.9 | 7 | nt | 0.77 | 28 | nt | nt | nt
60 | Cc1nc(Cl)c(C#N)c2c1CCCC2 | 3.5 | -4.6 | -4 | i | 0.69 | -4 | 1 | 4 | -7.5

Not all compounds are listed, so the mix of outcomes need not match the whole.
